PrP UTR inh: inhibition of PrP 5' UTR reporter expression; cell-based PrP 5' UTR mRNA reporter, plate reader; inhibition, % (concentration not given with the values); 340,000 tested, 0.35% active; AID 488862;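 active = every replicate at 50% or more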;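 also: 0 = median of the neutral control wells; tested in H4 reporter cells; numbers are from one replicate; inactives centre near -14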
BJeLR viability: BJeLR cell viability loss; BJeLR (HRASV12) viability, CellTiter-Glo ATP luminescence, 48 h; reference of the scale not given here; inhibition, % (concentration not given with the values); 300,000 tested, 0.17% active; AID 1554;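 active = replicate mean above 50%; inconclusive = above 50% but judged a plate artefact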;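 also: 50 nL library stock added to about 25 µL; numbers are from one replicate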
Bead autofluor: counter-screen for toxin protease inhibitors: compound fluorescence. compound autofluorescence counterscreen, microsphere flow cytometry; active compounds read high. fluorescence intensity (test concentration not listed). 360,000 tested, 3.1% active. AID 624483;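 active = at least 3 SD above the mean of all compounds, about 16000 in these data; inconclusive = too few beads counted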;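 also: 100 nL of 1 mM stock went into each well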
Sa ugtP lethal: kills S. aureus RN4220 lacking UgtP | S. aureus RN4220 ugtP deletion, OD600 growth, 16 h; some inactives read as strong as hits | growth inhibition, % (concentration not given with the values) | 330,000 tested, 0.54% active | AID 1259309;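 active = z-score under -3 and OD600 up to 0.15 on both plates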;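 also: plate controls were untreated wells for no effect and antibiotic for full effect; wells of about 80 µL received 100 nL stock; the first replicate is given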
RN4220 kill: kills Staphylococcus aureus RN4220; S. aureus RN4220 growth, OD600, 16 h; inhibition, % (test concentration not listed); 330,000 tested, 0.33% active; AID 1259311;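 active = z-score of -3 or lower and OD600 up to 0.18 on both plates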;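 also: plate controls were untreated cells for no effect and reference antibiotic for full effect; stock transfer was 100 nL into about 80 µL; one replicate is shown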
Mtb hypoxia inh: Mtb hypoxia fluorescent reporter inhibition | M. tuberculosis hypoxia-regulated fluorescent reporter, fluorescence | fluorescence inhibition, % (concentration not given with the values) | 300,000 tested, 0.1% active;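 active = 35 to 45% if threefold the growth effect, above 45% if 1.5-fold the growth effect; inactive = the rest, general growth blockers included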;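 also: wells of about 50 µL received 100 nL stock; 0% = vehicle wells and 100% = reference inhibitor wells; whole bacteria with a GFP reporter of the hypoxia response; strong numbers were not always called active; many hits fall short of the cut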
Mtb hypoxia inh growth: further read-out of Mtb hypoxia inh, marked with its call; growth inhibition, %; measured here: M. tuberculosis growth (absorbance);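 0% = vehicle and 100% = reference antibiotic; read after six days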
The depositor's hits bear a star; ? = inconclusive; nt = no result given.

Results follow in this order: PrP UTR inh, BJeLR viability, Bead autofluor, Sa ugtP lethal, RN4220 kill, Mtb hypoxia inh, Mtb hypoxia inh growth
- C=CCCC(Cc1ccc(F)cc1)C(=O)OC(CNC(=O)C(CC=C)CC(=O)NC(CO)Cc1ccccc1)c1ccccc1 (configuration not stated)
    nt, nt, nt, 1.5, 6.5, 4.4, 12.3
- O=C(NCCCn1ccnc1)c1ccc(COc2ccccc2)o1
    -3.3, 0.6, ?, -3.0, 1.8, -9.9, 7.9
- CC(Oc1cccc(Cl)c1)C(=O)N1CCN(c2ncccn2)CC1 (configuration not stated)
    nt, nt, nt, -0.8, 8.2, 14.2, 7.2
- COc1ccc(Cn2c(O)c(C=Nc3ccc(C)cc3)c3ccccc3c2=O)cc1
    -16.6, -6.7, 8788, 4.1, -0.2, -3.4, 4.7
- Brc1ccc(Oc2ccc(Br)cc2Br)c(Br)c1
    -16.7, nt, 5518, -13.0, -4.4, -7.5, 7.0
- CC(C)c1ccc(NC(=O)CCC(=O)NCc2ccco2)cc1
    -18.6, -8.7, 4128, 4.6, 9.8, 13.2, 3.2
- CCNC(=S)N/N=C/c1c(Cl)cccc1Cl
    -12.7, -6.0, 2360, nt, nt, nt, nt
- Cc1ccc(CNC(=O)CCNS(=O)(=O)c2ccc(C)cc2)cc1
    -8.7, 1.5, 4205, 3.4, -4.1, nt, nt
- CCC1CN(C(=O)N2CCC(C(=O)NCCc3ccccc3OC)CC2)c2ccccc2O1 (configuration not stated)
    -11.2, 11.9, 4674, 5.1, -4.9, 9.4, 7.1
- COc1ccc(NC(=O)CN(C)CC(=O)Nc2ccc(Cl)c(S(=O)(=O)N(C)C)c2)cc1
    -27.2, 3.6, 4149, 4.7, -0.6, 7.6, 0.2
- CCCN1CCN(CC(=O)Nc2nncs2)CC1
    -9.8, 27.2, 4058, 3.3, 2.5, -4.8, 5.5
- O=C(COc1ccccc1)Nc1ccc(N2CCN(C(=O)c3cccs3)CC2)cc1
    -18.9, nt, 4290, -2.4, 5.4, 0.7, 5.9
- COC(=O)c1cc(NC(=O)CSc2nncn2C)cc(C(=O)OC)c1
    -18.2, -14.2, 20871*, -4.8, 10.0, 8.3, 3.9
- COC(=O)C1=C(c2cc3ccccc3s2)C[C@@H]2CC[C@H]1N2C(=O)N1CCCCC1
    -11.5, 3.1, 2929, nt, nt, nt, nt
- O=C(CSc1ncccn1)NCCC1=CCCCC1
    -23.7, 2.6, 5183, 12.2, 3.3, 7.8, 9.8
- CCn1c(CC(=O)Nc2cccc(OC)c2)nnc1SCC(=O)Nc1nccs1
    5.3, -3.3, 16104, 1.2, 3.3, 4.6, 4.2
- CCOC(=O)c1sc2ncn(C(C)C(=O)OCC)c(=O)c2c1C (configuration not stated)
    -25.1, 2.7, 3048, 0.3, 3.2, 11.8, 10.6
- Cc1cc(F)ccc1NC(=O)CCCN(C)S(=O)(=O)c1ccc(F)cc1
    -3.5, -2.7, 5648, 8.9, -2.5, -6.8, 11.0
- Cc1cc(C)n(-c2nnc(NCc3ccc(Cl)cc3)nn2)n1
    -21.6, -0.1, 4645, -3.0, 4.0, 12.2, 23.1
- CN1CCN(c2nc3c(c(=O)n(C)c(=O)n3C)n2Cc2ccc(F)cc2)CC1
    -23.1, -5.6, 3753, 13.1, 5.4, 6.3, 8.0
- Cc1[nH]c2ccccc2c1C(=O)COC(=O)c1c(-c2ccccc2Cl)noc1C
    -0.3, 4.0, 2114, -21.2, 2.2, 16.9, 7.0
- O=C(NCC1COc2ccccc2O1)C1C2C=CC3(CN(Cc4cccs4)C(=O)C13)O2 (configuration not stated)
    -5.6, 6.3, 8810, -8.6, -1.3, 3.4, 6.9
- CCN(CC)CCN1C(=O)C(=O)/C(=C(/O)c2ccc(S(=O)(=O)N3CCOCC3)cc2)C1c1ccccc1 (configuration not stated)
    -7.0, 8.0, 3038, -2.1, 1.6, -0.7, -12.3
- COc1cc(S(=O)(=O)N2CCOCC2)cc(C(=O)OCC(=O)NCc2ccco2)c1OC
    -5.5, nt, 3849, -1.5, -0.1, 0.3, 8.1
- CC(=O)Nc1sc(NN=Cc2ccccc2Cl)nc1-c1cccs1
    nt, nt, nt, -0.9, 4.3, 7.8, 0.1
- CNC(=S)Nc1cccc(Cl)c1C
    -22.6, -1.6, 4210, -0.8, 2.7, -3.3, -0.3
- COc1cccc(/C=N/NC(=O)CN(CCc2ccccc2)S(=O)(=O)c2ccc(NC(C)=O)cc2)c1
    -9.4, 6.0, 2496, nt, nt, nt, nt
- Cc1ccc(-n2c(N)c(C(=O)NCc3ccco3)sc2=S)cc1
    -7.2, 4.0, 2957, 4.3, 3.7, 1.0, 8.9
- COC(=O)NC(C)N1C(=O)C2C3C=CC(C3)C2C1=O (configuration not stated)
    -12.1, -2.6, 4198, 11.8, 1.1, 5.9, 2.4
- COc1cc(OC)c(N(C)S(=O)(=O)c2cccc(C(=O)Nc3nccs3)c2)cc1Cl
    -7.7, nt, 4542, -6.5, 11.5, 16.9, 6.1

An excerpt from above in order of count of non-hydrogen atoms, lowest first.
Results follow in this order: PrP UTR inh, BJeLR viability, Bead autofluor, Sa ugtP lethal, RN4220 kill, Mtb hypoxia inh, Mtb hypoxia inh growth
- CNC(=S)Nc1cccc(Cl)c1C
    -22.6, -1.6, 4210, -0.8, 2.7, -3.3, -0.3
- CCNC(=S)N/N=C/c1c(Cl)cccc1Cl
    -12.7, -6.0, 2360, nt, nt, nt, nt
- Cc1cc(C)n(-c2nnc(NCc3ccc(Cl)cc3)nn2)n1
    -21.6, -0.1, 4645, -3.0, 4.0, 12.2, 23.1
- CC(Oc1cccc(Cl)c1)C(=O)N1CCN(c2ncccn2)CC1 (configuration not stated)
    nt, nt, nt, -0.8, 8.2, 14.2, 7.2

Continuation.
Results follow in this order: PrP UTR inh, BJeLR viability, Bead autofluor, Sa ugtP lethal, RN4220 kill, Mtb hypoxia inh, Mtb hypoxia inh growth
- O=C(/C=C/c1ccccn1)c1cc(Cl)cc(Cl)c1O
    -13.6, 29.3, 3193, 13.7, -5.4, 18.0, 12.2
- COc1ccc(NS(=O)(=O)c2cc(NC(=O)COc3ccccc3)ccc2N2CCOCC2)cc1
    -13.8, nt, 3249, -3.4, -3.8, 5.7, 4.3
- COc1ccc2c(c1)c(C(=O)CN1CCCCC1)c(C)n2C
    -9.2, 4.0, 4028, 8.9, 6.9, 0.1, 8.3
- Cc1cccc(NC(=O)c2nc[nH]c2C(=O)Nc2ccccc2[N+](=O)[O-])c1
    -15.4, -3.4, 2606, -4.0, 6.5, 13.4, -6.0
- COc1ccc(C=NNC(=O)CN2CCN(Cc3ccccc3)CC2)cc1Br
    nt, nt, nt, 3.8, 0.8, 4.9, -0.5
- Cc1cc2nc(-c3ccc[nH]c3=O)n(Cc3ccc(F)cc3)c2cc1C
    -5.6, 4.1, 3200, -2.5, 3.5, 3.0, -6.3
- CCOC(=O)c1cc(-c2ccccc2)sc1NC(=O)CN1C(=O)NC(CC)(c2ccccc2)C1=O (configuration not stated)
    -21.2, -1.4, ?, -25.0, -3.5, 15.2, 2.3
- O=C(NN=Cc1ccccn1)c1cc(C2CC2)[nH]n1
    nt, nt, nt, 6.4, 5.8, 10.6, 4.1
- Cc1cc(C)n2nc(SCC(=O)NC(=O)NCc3ccco3)nc2n1
    -10.7, -7.0, 3154, -2.7, 5.0, 7.0, -1.5
- Cc1nn2c(-c3ccc(F)cc3)ccnc2c1Br
    -9.0, 4.5, 3084, 3.6, 5.8, 3.9, 2.3
- O=c1[nH]c(=O)n(CCc2ccc(F)cc2)c(O)c1/C=N/N1CCCCC1
    -16.7, 3.3, 3682, 7.7, 1.7, 0.1, -6.9
- C=CCC[C@H](Cc1ccc(F)cc1)C(=O)OC[C@@H](C)NC(=O)[C@H](CC=C)CC(=O)N(CCO)Cc1ccccc1
    -13.5, nt, 3057, -6.8, 0.4, 3.7, 6.6
- NC(=S)NN=Cc1coc2ccc(F)cc2c1=O
    nt, nt, nt, 8.9, 4.2, 14.6, -1.0
- CCCCCC(=O)Nc1ccc(N2CCN(CC)CC2)c(Cl)c1
    -23.1, -5.5, 23051*, -4.7, -4.3, 0.7, 10.2
- Cc1cc(C(=O)CCC(=O)Nc2ncccc2C)c(C)s1
    -3.4, 0.2, nt, 0.2, 8.7, -4.0, -7.4
- O=C(COC(=O)c1ccc(O)cc1)NCC1CCCO1 (configuration not stated)
    -1.4, 4.6, 4337, 4.8, 8.8, 9.4, 3.6
- O=C(NCCc1ccccc1)C1CC(=O)N(C2CCCCC2)C1 (configuration not stated)
    -28.2, -1.5, 6781, 1.9, 3.2, 10.4, -15.2
- O=C1/C(=C/c2ccc(O)cc2)COc2ccccc21
    -32.6, 0.2, 5744, -0.1, 5.0, 20.4, 3.6
- CCn1nnc(-c2ccccc2NC(=O)c2cnccn2)n1
    -19.3, -0.6, 3401, nt, nt, nt, nt
- COc1ccccc1CNS(=O)(=O)CCNC(=O)c1ccccc1
    -9.1, -3.9, ?, 6.2, 2.9, 3.6, 2.4
- O=C(Cc1ccccc1)NCC(=O)Nc1ccc(OC(F)(F)F)cc1
    -14.4, -3.5, 4033, 11.6, -6.8, 4.9, 3.1
- CCN1CCN(S(=O)(=O)c2ccc(Cl)c(C(=O)Oc3ccc(CC(=O)OC)cc3)c2)CC1
    -21.4, nt, 3491, 7.1, 4.1, -7.1, 3.0
- O=C(Cn1sc2ccccc2c1=O)NC12CC3CC(CC(C3)C1)C2
    -23.6, -2.2, 2105, 100.6*, 105.9*, nt, nt
- O=C(c1cccc(-n2cnnn2)c1)N1CCOCC1
    -10.6, 1.8, 8051, 4.6, 3.9, 12.8, 14.0
- O=C(O)CCN1CCN(S(=O)(=O)c2ccc3ccccc3c2)CC1
    -14.8, 4.4, ?, 9.7, 3.8, -2.9, -0.5
- CCCNC(=O)N1CCN(C(=O)NCCC)CC1
    -22.1, -4.4, 2360, 1.0, 0.7, nt, nt
- CCc1[nH]nc(C(=O)N/N=C/c2ccncc2)c1C
    -51.6, 4.9, 5342, nt, nt, nt, nt
- CCOc1ccc2nc(N3CCCC(C(=O)NCCCN4CCCCC4)C3)sc2c1 (configuration not stated)
    -49.6, 15.0, 4895, 4.3, 2.8, 13.7, 3.4
- CCn1c(/C=N/NC(=O)c2ccc(OC)cc2)nc2ccccc21
    2.0, -11.2, 2505, nt, nt, nt, nt
- Cn1c(=O)c2[nH]c(-c3ccccc3)c(O)c2n(C)c1=O
    -6.0, -6.1, 2120, -0.9, -2.2, 2.5, -1.7

Next entries.
mol	PrP UTR inh	BJeLR viability	Bead autofluor	Sa ugtP lethal	RN4220 kill	Mtb hypoxia inh	Mtb hypoxia inh growth
CCN(CC)CCNC(=S)Nc1ccc2nc(N3CCCC3)cc(C)c2c1	-7.0	-0.5	2503	14.5	2.7	5.2	12.5
CC(C)C(=O)Nc1cccc(-c2nc3ccccc3o2)c1	-26.5	-0.5	3408	-1.1	-1.5	-10.9	-5.9
CC(=O)C1=C(O)C(=O)N(c2ccc(O)cc2)C1c1ccc(Cl)cc1 (configuration not stated)	-19.9	-11.0	4063	4.3	0.1	16.2	3.2
Fc1cnc(N2CCN(c3ccccc3)CC2)nc1N1CCN(c2ccccc2)CC1	-22.2	-3.7	3467	5.3	-2.7	-2.3	-2.0
Cc1ccc(-c2cc(C(=O)NCc3cn(C)nc3C)c3cc(Br)ccc3n2)cc1	-28.8	8.1	7730	-9.1	14.4	-0.9	6.1
CC1CCN(C(=O)COC(=O)c2cccc(S(=O)(=O)N(C)c3ccccc3)c2)CC1	-33.6	nt	3717	2.8	0.8	8.2	-4.1
CCNc1nc(OC)nc(SCC(=O)Nc2ccccc2)n1	nt	11.8	4304	3.3	1.2	0.2	6.9
Cc1cc(N2CCC(C(=O)NC3CC3)CC2)nc(-c2ccccc2)n1	-27.4	10.2	4605	7.2	3.2	nt	nt
CCOc1ccc(C(=O)Nc2nnc(C(C)C)s2)cc1OCC	-33.2	2.4	4626	-7.8	-5.3	nt	nt
O=C(Nc1ccc(F)cc1F)c1noc2c1CCC2	-41.8	4.2	10803	-8.3	4.9	2.8	5.1
COc1ccc(C(=O)NC(=S)N2CCC(C)CC2)cc1	-16.9	-7.0	4814	-0.9	-1.2	nt	nt
CCCS(=O)(=O)N1CCC(C(=O)NCCc2ccc(OC)c(OC)c2)CC1	-6.4	4.1	3230	-5.1	3.5	-8.8	11.4

Screening results (PubChem BioAssay)
